# Source: PubChem BioAssay
# Cruzain inh Det: inhibitors of Trypanosoma cruzi cruzain with detergent; purified cruzain, Z-FR-AMC fluorescence, 0.01% Triton; Potency, µM, inactives show max response, negative = inhibition, most hits filed as inhibitors; AID 1478; P25779; actives 0.43% (n = 200,000);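 further: plate controls were neutral wells for no effect and buffer without enzyme for full effect; nearly all actives have a fitted effect of over 40% in size; top concentration of the series not given in the record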
# Target sequence (P25779 123-467 limits assumed): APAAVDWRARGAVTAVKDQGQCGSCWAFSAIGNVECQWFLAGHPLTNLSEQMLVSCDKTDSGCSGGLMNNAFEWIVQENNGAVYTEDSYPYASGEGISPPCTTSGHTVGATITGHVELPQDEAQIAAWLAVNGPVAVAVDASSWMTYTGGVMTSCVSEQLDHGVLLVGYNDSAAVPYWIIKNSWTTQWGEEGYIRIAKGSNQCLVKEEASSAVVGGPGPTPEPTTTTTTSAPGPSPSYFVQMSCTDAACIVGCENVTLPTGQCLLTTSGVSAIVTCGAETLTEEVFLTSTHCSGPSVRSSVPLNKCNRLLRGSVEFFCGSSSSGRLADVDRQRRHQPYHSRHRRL
#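 Detergent-containing run (0.01% Triton X-100) in acetate buffer pH 5.5 with 5 mM DTT: enzyme at 1.5 nM final, 15 min compound preincubation at room temperature, then 2 uM Z-FR-AMC substrate. Activity taken as 60 s fluorescence increase at 360/450 nm.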
# Lassa entry inh: blocks Lassa virus binding to or entry into cells. AID 540256. actives 1.2% (n = 300,000). Potency, µM (series often up to 37.9 µM), without a hit: at the highest dose activity change, negative = inhibition, actives largely listed as inhibitors. Lassa virus pseudotype entry inhibition, cell reporter; control for the full effect not named in the record; active means well fitted inhibition curve with a large enough effect; inconclusive means small, poorly fitted or top-dose-only effect, or effect the other way; inactive means flat fitted curve, though single readings scatter; tested in HEK293 cells; further: on the % scale 0 is the no-effect control and ±100 the full control effect; nearly all actives have a fitted effect of over 50% in size; luciferase read-out
# Cruzain noTriton: blocks cruzain activity in detergent-free assay; P25779; purified cruzain, Z-FR-AMC fluorescence, no detergent; Potency, µM, for inactives: max response, negative = inhibition, hits mostly inhibitors; actives 2.3% (n = 200,000); AID 1476;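 further: plate controls were enzyme without inhibitor for no effect and buffer without enzyme for full effect; nearly all actives have a fitted effect of over 40% in size; top concentration of the series not given in the record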
#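 Detergent-free condition (0.00005% Triton X-100) in acetate buffer pH 5.5 with DTT. 1.5 nM enzyme and compound were pre-mixed 15 min, then 2 uM Z-FR-AMC substrate added; reaction progress from fluorescence change between first and third reads (60 s).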
# RE007 growth inh: less growth of the S. pombe RE007 Vpr strain | S. pombe RE007 Vpr strain, BacTiter-Glo ATP luminescence, 24 h; control for the full effect not named in the record | Potency, µM (highest dose often 92.2 µM), for inactives: at the highest dose activity change, negative = less growth | actives 0.21% (n = 360,000) | AID 651644; active = well fitted falling curve with a large enough effect; inconclusive = small, poorly fitted or top-dose-only effect; inactive = no such curve, though single readings can be large or run the other way;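 further: on the % scale 0 is the no-effect control and ±100 the full control effect; nearly all actives have a fitted effect of over 50% in size; the assay follows cell death caused by Vpr and the record does not say whether a fall means rescue or toxicity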
#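 Fission yeast strain RE007, carrying one chromosomally integrated HIV-1 vpr copy, was seeded at OD 0.01 in PMG+AL medium with 23 nL pinned compound. After 24 h at 30 °C and 99% humidity, viability was read by BacTiter-Glo luminescence.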
# StopGo reporter: FMDV 2A StopGo reporter, luciferase signal; Potency, µM (highest dose often 57.9 µM), for the others: at the highest dose signal change, negative = less light; human cells with a luciferase reporter of 2A StopGo recoding; control for the full effect not named in the record; actives 1.2% (n = 410,000); active = well fitted falling curve with a large enough effect; inconclusive = small, poorly fitted or top-dose-only effect; inactive = no such curve, though single readings can be large or run the other way; tested in HEK293T cells; further: on the % scale 0 is the no-effect control and ±100 the full control effect; nearly all actives have a fitted effect of over 45% in size; luciferase light after 4 h
# SARS PLpro yeast: SARS-CoV PLP inhibition in yeast; AID 485353; S. cerevisiae expressing SARS-CoV PLpro, growth rescue; control for the full effect not named in the record; Potency, µM (doses to about 32.9 µM), without a hit: top-dose activity, positive = growth rescue; actives 0.19% (n = 330,000); active means well fitted rising curve with a large enough effect; inconclusive means small, poorly fitted or top-dose-only effect; inactive means no such curve, though single readings can be large or run the other way; further: 0% is about no effect; nearly all actives have a fitted effect of over 55% in size; growth read by luminescence after 48 h
# NS1 inh: blocks influenza NS1 protein function; S. cerevisiae slowed by influenza A NS1, growth recovery by OD600; Potency, µM (titrated, usually from 46.1 µM), for the others: at the top dose activity, positive = more growth; actives 0.4% (n = 270,000); active means well fitted rising curve with a large enough effect; inconclusive means small, poorly fitted or top-dose-only effect; inactive means no such curve, though single readings can be large or run the other way; further: nearly all actives have a fitted effect of over 50% in size
#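 OD600 was taken as the measure of yeast growth restored by compound in an NS1-expressing S. cerevisiae strain. Cells had been washed out of glucose medium and diluted 1:100 into galactose -URA medium, pH 6.0.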
# Marburg entry inh: blocks Marburg virus binding to or entry into cells; Marburg virus pseudotyped entry inhibition, cell reporter; control for the full effect not named in the record; about a third of the inactives were read at about 46 µM; Potency, µM (titrated, usually from 37.8 µM), without a hit: at the top dose activity change, negative = inhibition, hits mostly inhibitors; actives 1.8% (n = 300,000); active = well fitted inhibition curve with a large enough effect; inconclusive = small, poorly fitted or top-dose-only effect, or effect the other way; inactive = flat fitted curve, though single readings scatter; tested in HEK293 cells; about a fifth of its hits are not listed in these tables; further: on the % scale 0 is the no-effect control and ±100 the full control effect; luciferase read-out
# * marks the source's active call; other numbers are inactive results; ? = inconclusive; . = not tested or not shown; & = joins results of further samples; [ ] = remark or other dose. Unless noted, the call rests on the fitted dose curve; in most records, active means well fitted curve in the direction sought with a large enough effect; inconclusive means small, poorly fitted or top-dose-only effect, or another doubt; inactive means no such curve, though single readings can be large; an effect the other way counts as inactive or inconclusive. Potency means the concentration at half of the fitted maximal effect.
no.	SMILES	Cruzain inh Det	Lassa entry inh	Cruzain noTriton	RE007 growth inh
1	COCCOC(=O)C1=C(C)NC(=O)NC1C1CC=CCC1 (configuration not stated)	4.7%	12%	7%	-3%
2	COc1cc([N+](=O)[O-])ccc1-c1ccc(/C=N/NC(=O)OC(C)(C)C)o1	.	6%[46.1 µM]	.	-5%
3	CCOC(=O)c1cccc(NC(=O)c2ccc3snnc3c2)c1	-7.8%	?	1%	.
4	O=C(Cn1c(=O)nc(-c2ccccc2)c2ccccc21)NCCc1ccc(Cl)cc1	0.8%	-8%[46.1 µM]	-3%	.
5	CC(C)C(=O)Nc1c2c(nc3c1CCC3)CCCC2	1.5%	11%	-4%	1%
6	Cc1ccccc1-c1ccc(=O)n(CC(=O)Nc2ccc(C(=O)N3CCCC3)cc2)n1	3.4%	-3%	6%	16%
7	Cc1cc(OCC(=O)O/N=C(\N)Cc2cccs2)ccc1Br	-4.0%	-6%	0%	?
8	O=C(CCN1C(=O)COc2ccccc21)NCCN1CCOCC1	1.5%	0%	-4%	12%
9	O=C(Nc1ccccc1)C(=O)c1cn(CC(=O)N2CCCCC2)c2ccccc12	-8.5%	.	-20%	-6%
10	COc1ccccc1CNc1ccc(C(=O)O)cc1	5.1%	?	3%	7%
11	Cc1ccc(-n2ncc3c(N4CCN(C)CC4)ncnc32)cc1Cl	1.2%	?	1%	.
12	CC1CCC/C(=N\NC(=O)c2ccncc2)C1 (configuration not stated)	-3.7%	-2%	-9%	-13%

no.	StopGo reporter	SARS PLpro yeast	NS1 inh	Marburg entry inh
1	.	6%	3%	10%
2	-6%	0%	-9%	28%[46.1 µM]
3	0%	.	.	29%[46.1 µM]
4	7%	.	.	.
5	6%	4%	6%	19%
6	3%	-3%	-1%	0%
7	-10%	-1%	-13%	11%
8	-19%	3%	-10%	4%
9	23%	2%	?	-4%
10	14%	16%	-158%	1%
11	0%	.	.	.
12	-14%	-16%	11%	16%

# Other results follow.
no.	SMILES	Cruzain inh Det	Lassa entry inh	Cruzain noTriton	RE007 growth inh
13	Nc1ccc(C(=O)OCC(=O)Nc2cc([N+](=O)[O-])ccc2F)cc1	-5.0%	.	-1%	-12%
14	COC(=O)c1cccc(NC(=O)C23CC4CC(C2)CC(n2cncn2)(C4)C3)c1	2.4%	-8%	10%	-7%
15	CCn1c(SCC(=O)N2CCC(C)CC2)nc2c(c1=O)SC(C)C2 (configuration not stated)	.	.	.	13%
16	Cc1ccc(N/C(N)=N/c2nc(C)cc(N3CCCCC3)n2)c(C)c1	.	?	.	2%
17	O=C(NCCc1c[nH]c2ccccc12)C(=O)NCC1OCCCN1S(=O)(=O)c1cccs1 (configuration not stated)	.	?	.	48%
18	O=C(COC(=O)Cn1cnc2ccccc2c1=O)Nc1ccc(Cl)cc1	-4.4%	.	6%	-1%
19	CCCOP(=O)(O)c1c([N+](=O)[O-])cc(C(F)(F)F)cc1[N+](=O)[O-] (tested in a mixture with another compound)	0.8%	30%	5%	-7%
20	COc1ccc(N(CC(=O)N/N=C/c2ccc(-c3ccc([N+](=O)[O-])cc3)o2)S(=O)(=O)c2ccc(C)cc2)cc1Cl	3.8%	-1%	6.3µM*	0%
21	COc1ccccc1-c1nc2s/c(=C\c3cccs3)c(=O)n2n1	0.5%	7%	16%	2%
22	O=C(N/N=C\C=C\c1ccco1)C1COc2ccccc2O1 (configuration not stated)	.	?	.	7%
23	CC(C)NC(=O)C1(O)c2ccccc2NC(=O)N1c1ccc(Cl)c(Cl)c1 (configuration not stated)	3.9%	6%	-14%	17%
24	COc1ccc(C2C(C(=O)Nc3cc(OC)c(OC)c(OC)c3)c3ccccc3C(=O)N2C)cc1 (configuration not stated)	.	?	.	6%

no.	StopGo reporter	SARS PLpro yeast	NS1 inh	Marburg entry inh
13	-19%	14%	3%	.
14	-16%	10%	-9%	15%
15	-29%	-6%	-34%	.
16	16µM*	-2%	.	?
17	?	-3%	.	10%[46.1 µM]
18	-3%	-7%	-17%	-1%
19	.	-17%	15%	9%
20	-8%	3%	14%	4%&-1%
21	19%	-7%	-160%	-3%
22	0%	0%	3%	-3%
23	9%	0%	-3%	?
24	-28%	2%	.	?

# Some of the entries so far, screen by screen:
13	Nc1ccc(C(=O)OCC(=O)Nc2cc([N+](=O)[O-])ccc2F)cc1
14	COC(=O)c1cccc(NC(=O)C23CC4CC(C2)CC(n2cncn2)(C4)C3)c1
15	CCn1c(SCC(=O)N2CCC(C)CC2)nc2c(c1=O)SC(C)C2 (configuration not stated)
16	Cc1ccc(N/C(N)=N/c2nc(C)cc(N3CCCCC3)n2)c(C)c1
17	O=C(NCCc1c[nH]c2ccccc12)C(=O)NCC1OCCCN1S(=O)(=O)c1cccs1 (configuration not stated)
18	O=C(COC(=O)Cn1cnc2ccccc2c1=O)Nc1ccc(Cl)cc1
19	CCCOP(=O)(O)c1c([N+](=O)[O-])cc(C(F)(F)F)cc1[N+](=O)[O-] (tested in a mixture with another compound)
20	COc1ccc(N(CC(=O)N/N=C/c2ccc(-c3ccc([N+](=O)[O-])cc3)o2)S(=O)(=O)c2ccc(C)cc2)cc1Cl
screen / no.	13	14	15	16	17	18	19	20
Cruzain inh Det	-5.0%	2.4%	.	.	.	-4.4%	0.8%	3.8%
Lassa entry inh	.	-8%	.	?	?	.	30%	-1%
Cruzain noTriton	-1%	10%	.	.	.	6%	5%	6.3µM*
RE007 growth inh	-12%	-7%	13%	2%	48%	-1%	-7%	0%
StopGo reporter	-19%	-16%	-29%	16µM*	?	-3%	.	-8%
SARS PLpro yeast	14%	10%	-6%	-2%	-3%	-7%	-17%	3%
NS1 inh	3%	-9%	-34%	.	.	-17%	15%	14%
Marburg entry inh	.	15%	.	?	10%[46.1 µM]	-1%	9%	4%&-1%

21	COc1ccccc1-c1nc2s/c(=C\c3cccs3)c(=O)n2n1
22	O=C(N/N=C\C=C\c1ccco1)C1COc2ccccc2O1 (configuration not stated)
23	CC(C)NC(=O)C1(O)c2ccccc2NC(=O)N1c1ccc(Cl)c(Cl)c1 (configuration not stated)
screen / no.	21	22	23
Cruzain inh Det	0.5%	.	3.9%
Lassa entry inh	7%	?	6%
Cruzain noTriton	16%	.	-14%
RE007 growth inh	2%	7%	17%
StopGo reporter	19%	0%	9%
SARS PLpro yeast	-7%	0%	0%
NS1 inh	-160%	3%	-3%
Marburg entry inh	-3%	-3%	?

# (more compounds)
no.	SMILES	Cruzain inh Det	Lassa entry inh	Cruzain noTriton	RE007 growth inh
25	CC(C)C[C@H](N)c1cn([C@@H](Cc2cc3ccccc3[nH]2)C(=O)N2CCNCC2)nn1	.	.	.	14%
26	COc1ccc(N2CCN(C(c3ccco3)c3sc4nc(C)nn4c3O)CC2)cc1 (configuration not stated)	-2.7%	5%	2%	2%
27	CN(C)c1ccc(CN(Cc2ccco2)C(=O)c2ccc(C(C)(C)C)cc2)cc1	-9.9%	?	-13%	.
28	CN(C)S(=O)(=O)c1cccc(NC(=S)NNC(=O)c2cc3ccccc3cc2O)c1	.	-1%	.	0%
29	COc1ccc(OC)c(NC(=O)c2cccc(NC(=O)c3ccccc3)c2)c1	.	?	.	22%
30	CCOc1cccc2cc(-c3cn4c(n3)sc3ccccc34)c(=O)oc12	1.7%	0%[46.1 µM]	-7%	.
31	CCOC(=O)N1CCN(Cc2cc(=O)oc3ccc4ccccc4c23)CC1	-7.7%	-15%	4%	6%
32	CN(CC(=O)Nc1cccc(F)c1)C(=O)c1ccncc1	.	?	.	-1%

no.	StopGo reporter	SARS PLpro yeast	NS1 inh	Marburg entry inh
25	-13%	-1%	2%	.
26	26%	-7%	-10%	4%&4%
27	6%	.	.	-1%[46.1 µM]
28	6%	4.5µM*	.	0%[46.1 µM]
29	-8%	-6%	-10%	?
30	25%	.	.	.
31	20µM*	-3%	-37%	-17%
32	-12%	2%	3%	16%[46.1 µM]
